# Bioassay records: PubChem, National Center for Advancing Translational Sciences (NCATS)
# PK Bst: alters activity of Bacillus stearothermophilus pyruvate kinase | AID 361 | Potency, µM | 51,000 compounds, 1.2% hits | partly purified Bacillus stearothermophilus pyruvate kinase, luminescence ATP production; ribose 5-phosphate activator present at AC10; in the data active means potency below about 11 µM; inconclusive means mostly about 12 µM to 25 µM; inactive means weaker than that;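 the screen sought inhibitors and activators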;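 note: potency is the fitted concentration of half-maximal effect; scaled between full activation by ribose 5 phosphate and full inhibition by luteolin; about four in five hits inhibit and the cells do not say which; series up to 57 µM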
# TsaE inh: YjeE (TsaE) inhibition, E. coli; purified YjeE, fluorescence polarisation of a bound ADP probe; 71,000 compounds, 0.05% hits; Potency, µM; AID 605; P0AF67; active = well fitted falling curve; inconclusive = weaker or top-dose-only fall, or a rising curve; inactive = flat or poorly fitted curve;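 note: top concentration of the series not given in the record; excess ADP was the control for the full effect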
#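 Purified YjeE (10 uM) with BODIPY Texas Red-labeled ADP probe (2 uM); compounds pin-transferred, 15 min at room temperature. Binding inhibition read as decreased fluorescence polarization; ADP titration as control.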
# The depositor's hits bear a star; i = inactive; ? = inconclusive; . = not tested or not shown. Some of the compounds tested. The share of hits here may be higher or lower than overall.
PK Bst,TsaE inh,SMILES
.,i,COc1ccccc1-c1nnc(N(C)C(=O)C2CCCO2)s1 (stereo not given)
>57,i,CCCOC(=O)C1=C(C)NC2=C(C(=O)CCC2)C1c1cc(OC)ccc1OC (stereo not given)
.,i,COc1ccc2nc3c(c([Si](C)(C)C(C)(C)C)c2c1)Cn1c-3cccc1=O
>57,i,CC12CN3CC(C)(CN(C1)C3c1cc3ccccc3[nH]1)C2=O (stereo not given)
>57,i,O=C(COC(=O)C1CCC1)NCc1ccccc1Cl
.,i,O=C(COc1ccc(Cl)cc1Cl)Nc1ccc2nc3n(c(=O)c2c1)CCCC3
.,i,S=C(S)O[C@@H]1C[C@@H]2C[C@H]1[C@@H]1CCC[C@H]21
>57,i,COc1ccc(CN2CC(C(=O)NCCN3CCN(c4ccccc4F)CC3)CC2=O)cc1 (stereo not given)
>57,i,Brc1cccc(-c2nnc3n2CCC3)c1
>57,i,Cc1ccc(C(=O)C(C)OC(=O)C2CC(=O)N(C3CCCCC3)C2)cc1 (stereo not given)

PK Bst,TsaE inh,SMILES
>57,i,CCCOc1ccc(C(=O)c2nc3c(n2O)CCCC3)cc1
3.25*,i,O=c1c2c(nc3c(-c4ccc(Cl)cc4)c[nH]n13)CCCC2
>57,i,Cc1occc1-c1nnc(SCC(=O)N2CCOCC2)n1CCc1ccccc1
>57,i,O=C(CN1CCc2ccccc21)NC(=O)NCc1ccco1
>57,i,Cc1cccc(-n2c(SCC(=O)NCc3ccco3)nnc2-c2ccco2)c1
.,i,CC1=NCC[N@@+]1(CCc1ccccc1)Cc1ccccc1
>25.6,.,O=C(NCCc1ccccc1)/C(=N\O)c1ccccc1
>57,i,CC(=O)Nc1ccccc1Sc1ccccc1
?,i,CC1(c2ccc3noc(-c4ccc(Cl)cc4)c3c2)OCCO1
>57,i,Cc1cc2ccc(C)c(C)c2nc1SCC#N

PK Bst,TsaE inh,SMILES
i,i,O=C(c1c(Cl)cccc1Cl)N1CCN(c2ccccn2)CC1
.,i,OCC1CCCN(Cc2ccc(-c3ccccc3)cc2)C1 (stereo not given)
>57,i,O=C(CN1C(=O)NC2(CCCc3ccccc32)C1=O)N1CCN(C(=O)c2ccco2)CC1 (stereo not given)
>57,i,COc1ccccc1-c1cc(C(=O)NCc2ccc(Cl)cc2)no1
.,i,CCC(NC(=O)OC(C)(C)C)C(=O)Oc1ccc2c3c(c(=O)oc2c1)CCC3 (stereo not given)
>57,i,COc1ccc(Cc2nnc3c4cnn(C)c4ncn23)cc1
.,i,OCCn1cnc2c(SCc3ccccc3)ncnc21
>57,i,O=C1CCCN1c1cc(Cl)ccc1Cl
.,i,CCN(CC)C(=O)c1ccc2c(c1)N(Cc1ccccc1)C(=O)CS2=O (stereo not given)
.,i,CN(CC(=O)N1CCc2ccccc2C1)S(=O)(=O)c1ccc2c(c1)c(=O)n(C)c(=O)n2C

PK Bst,TsaE inh,SMILES
.,i,COc1ccc(OC)c(N2C(=O)C(Cl)=C(N3CCOCC3)C2=O)c1
>11.4,i,O=C(OCN1C(=O)c2ccccc2C1=O)c1ccccc1
.,i,O=C(Nc1cccc(F)c1)C1CCCN1S(=O)(=O)c1cccc2cccnc12 (stereo not given)
.,i,COc1cc(C(=O)Nc2ccc(N(C)C)cc2)cc(OC)c1OC
>57,i,CCc1ccc(C(=O)Nc2ccc(S(=O)(=O)Nc3nc(C)cc(C)n3)cc2)o1
.,i,O=C(O)[C@@H]1[C@@H]2O[C@H]([C@@H](Br)[C@H]2Br)[C@H]1C(=O)O
.,i,CN1[C@H]2CC(OC(=O)[C@H](CO)c3ccccc3)C[C@H]1[C@H]1O[C@H]12 (stereo not given in full)
>57,i,CCOc1cc2c(cc1OCC)C(C(=O)O)C(c1cc(Br)c(O)c(OC)c1)N(C)C2=O (stereo not given)
.,i,C[C@@]1(C(=O)O)CCC[C@@H]1C(=O)O
>57,i,CCOC(=O)C1=C(CN2CCOCC2)NC(=O)NC1c1cc(C)ccc1C (stereo not given)

PK Bst,TsaE inh,SMILES
>57,i,N=c1sccn1CC(=O)Nc1ccccc1Cc1ccccc1
>57,i,Cc1ccc(S(=O)(=O)N(Cc2cc3cc4c(cc3[nH]c2=O)OCCO4)CC2CCCO2)cc1 (stereo not given)
>25.6,.,Cc1ccc(-c2ccc(/C=N/c3ncn[nH]3)o2)cc1Cl
.,i,Cc1nc2ccccc2c2c1C(=O)N(C)C2=O
>57,i,CC(C)CC(c1nnnn1CCc1ccccc1)N1CCN(C(=O)c2ccco2)CC1 (stereo not given)
i,i,COc1ccccc1N1CCN(C(=O)C2c3ccccc3Oc3ccccc32)CC1
>57,i,COc1ccccc1NC(=O)C(CCS(C)(=O)=O)N1C(=O)c2ccccc2C1=O (stereo not given)
>57,i,COc1ccc2c(CC(=O)OCC(=O)N3CCc4ccccc43)coc2c1
>57,i,COc1ccc(N2CCN(c3oc(-c4ccco4)nc3C#N)CC2)cc1
i,i,Cc1nn(-c2ccc(F)cc2)c2sc(C(=O)O)cc12

PK Bst,TsaE inh,SMILES
.,i,COc1cccc(-c2nc(NC3CCNCC3)c3ccccc3n2)c1
>57,i,O=C(CN1CCCCC1)Nc1cccc(Br)c1
>25.6,i,C=C(CC)C(=O)c1ccc(OCC(=O)O)c(Cl)c1Cl
>57,i,COc1ccc(OCCn2c(=N)n(CCO)c3ccccc32)cc1
>57,i,Cc1cc(C)c2c(n1)nn1c(N3CCN(c4ccccc4)CC3)cc(C)nc21
.,i,CC(=O)c1ccc(OC(=O)c2cccs2)cc1
>57,i,COC(=O)C1=C(CN2CCN(C)CC2)NC(=O)NC1c1cc(C)ccc1C (stereo not given)
>57,i,COCCn1c(SCC(=O)NCc2cccs2)nnc1-c1ccc(OC)cc1
.,i,CS(=O)(=O)N1CCC2(CC1)CN(Cc1cc(C(F)(F)F)cc(C(F)(F)F)c1)C2
>57,i,COC(=O)[C@H](C)NC(=O)Nc1cc(OC)ccc1OC

PK Bst,TsaE inh,SMILES
>57,i,NS(=O)(=O)c1ccc(NC(=O)CN2CCCCC2)cc1
>25.6,.,N=c1c2c(-c3ccccc3)c(-c3ccccc3)n(Cc3ccccc3)c2ncn1CCCn1ccnc1
>57,i,O=C(OCC(=O)N1CCN(C(=O)c2ccco2)CC1)c1ccccc1Cc1ccccc1
>57,i,COc1ccc(N2CCN(C(=O)CSc3ncnc4c3cnn4-c3ccccc3C)CC2)cc1
.,i,CCN1CCN(C(=O)c2oc(=O)c3ccccc3c2-c2ccc(C)cc2)CC1
>57,i,O=C(CSc1nnc(-c2cccnc2)n1Cc1ccco1)NCc1ccc2c(c1)OCO2
>57,i,CC1(C)Cc2cccc(OCC(=O)N3CCN(S(=O)(=O)c4ccc(F)cc4)CC3)c2O1
>57,i,CC1CCc2cc(F)ccc2N1C(=O)CSc1nnc(-c2cccs2)n1C (stereo not given)
>57,i,CCc1nc(N2CCCC2C(=O)O)c2oc3ccccc3c2n1 (stereo not given)
>57,i,COc1ccccc1NC(=O)N(Cc1ccco1)Cc1cc2cccc(C)c2[nH]c1=O

PK Bst,TsaE inh,SMILES
>57,i,Cc1ccc(NC(=O)C2C(=O)N(CCO)C3(C)CC2c2ccccc2O3)cc1 (stereo not given)
>57,i,c1ccc(-n2ncc3c(NCc4ccccn4)ncnc32)cc1
.,i,CCN(CC)c1ccc(-c2c(C#N)c(N)nc(OC)c2C#N)cc1
>57,i,Cc1cc(C)c(OCC(=O)Nc2ccccc2N2CCOCC2)c(C)c1
>57,i,O=C(CSc1nnc(CNc2ccc(Cl)cc2)o1)Nc1nc2c(s1)CCCC2
>57,i,CCOc1ccc(C(CC(=O)O)NC(=O)c2ccco2)cc1OC (stereo not given)
.,i,O=C(CCCC(=O)N1CCCc2ccccc21)N1CCCc2ccccc21
>57,i,CCOc1cc(C2c3c(oc4cc(C)c(Cl)cc4c3=O)C(=O)N2Cc2ccco2)ccc1O (stereo not given)
.,i,O=C(Nc1ccc(NC(=O)c2ccco2)nc1)c1cccnc1
.,i,CCCC(=O)Nc1nc2ccc(OC)cc2s1

PK Bst,TsaE inh,SMILES
>57,i,O=C(Nc1cc(Cl)ccc1O)C1CCCO1 (stereo not given)
.,i,OC[C@@H]1O[C@H](O)[C@@H](Cl)[C@H](O)[C@@H]1O
>57,i,CC(C)C1Oc2ccccc2N(CC(=O)NCCCN2C(C)CCCC2C)C1=O (stereo not given)
>57,i,CCOC(=O)c1cc2c(=O)n3ccccc3nc2n(CC(C)C)c1=NC(=O)c1ccco1
.,i,COc1ccccc1N(CC(=O)Nc1c(C)cccc1C)S(C)(=O)=O
>57,i,O=C(OCc1cc2ccccc2[nH]c1=O)c1ccccc1
>57,i,O=C(CCCCCN1C(=O)CCC1=O)Nc1ccc2c(c1)OCO2
.,i,Cc1cnc(CNc2cc(-c3ccoc3)ncn2)cn1
>57,i,CCOc1cccc2c1OC1(C)CC2NC(=O)N1c1ccc(OC)cc1 (stereo not given)
>57,i,CCOC(=O)c1ccc(N2C(=O)CC(NC3CCN(C(=O)c4ccc(F)cc4)CC3)C2=O)cc1 (stereo not given)

PK Bst,TsaE inh,SMILES
.,i,CC(=O)c1sc(NC(=O)C2COc3ccccc3O2)nc1C (stereo not given)
>57,i,CN1C(=O)NC(c2ccccc2)C2=C1CN(c1cccc(C(F)(F)F)c1)C2=O (stereo not given)
>57,i,COc1ccc(OC)c(CC(NC(C)=O)C(=O)NC2CCN(c3nc(C)cc(C)c3C#N)CC2)c1 (stereo not given)
>57,i,O=C(CSCc1cnn(-c2ccccc2)c1-n1cccc1)NCc1ccc2c(c1)OCO2
>57,i,Cc1nc(NCC2CCCO2)[nH]c(=O)c1CCC(C)C (stereo not given)
>57,i,Cc1oc(-c2ccccc2F)nc1CN1CCC(C(=O)NCCC2=CCCCC2)CC1
>57,i,CN(C)S(=O)(=O)c1cccc(COC(=O)C2=COCCO2)c1
>57,i,COc1ccc(C2=NOC(C(=O)NCc3ccco3)C2)cc1OC (stereo not given)
>57,i,Cc1cc(C)cc(NC(=O)CCn2ccnc2C)c1
.,i,CC(C)CNC(=O)c1noc2c1CCCC2

# Grouped by structure, the entries above containing an aryl thioether with sulfur outside any ring.
PK Bst,TsaE inh,SMILES
>57,i,Cc1occc1-c1nnc(SCC(=O)N2CCOCC2)n1CCc1ccccc1
>57,i,Cc1cccc(-n2c(SCC(=O)NCc3ccco3)nnc2-c2ccco2)c1
>57,i,CC(=O)Nc1ccccc1Sc1ccccc1
>57,i,Cc1cc2ccc(C)c(C)c2nc1SCC#N
.,i,OCCn1cnc2c(SCc3ccccc3)ncnc21
>57,i,COCCn1c(SCC(=O)NCc2cccs2)nnc1-c1ccc(OC)cc1
>57,i,COc1ccc(N2CCN(C(=O)CSc3ncnc4c3cnn4-c3ccccc3C)CC2)cc1
>57,i,O=C(CSc1nnc(-c2cccnc2)n1Cc1ccco1)NCc1ccc2c(c1)OCO2
>57,i,CC1CCc2cc(F)ccc2N1C(=O)CSc1nnc(-c2cccs2)n1C (stereo not given)
>57,i,O=C(CSc1nnc(CNc2ccc(Cl)cc2)o1)Nc1nc2c(s1)CCCC2

# Further results.
PK Bst,TsaE inh,SMILES
>57,i,CCS(=O)(=O)N1CCN(C(=O)c2cc(OC)cc(OC)c2)CC1
>57,i,CCc1nnc(NC(=O)Cc2ccc(OCc3c(C)noc3C)cc2)s1
>57,i,CC(=O)N1c2c(cc(Br)cc2S(=O)(=O)N2CCN(c3ccccn3)CC2)CC1C (stereo not given)
>57,i,Cc1c(Cl)cccc1NC(=O)CSc1nnc(C)n1-c1ccccc1
>57,i,O=C(O)c1cc(S(=O)(=O)NCC2CCCO2)ccc1Cl (stereo not given)
.,i,[Li+]
>57,i,COCCCNc1nc2c([nH]1)c(=O)[nH]c(=O)n2C
.,i,COc1ccc(-n2c(=O)cnc3cnc(N4CCNCC4)nc32)cc1
>25.6,.,O=C1OC(Nc2ccc(Br)cn2)c2ccccc21 (stereo not given)
>57,i,Cc1cccc(C)c1NC(=O)C(c1ccccc1)N1CCC2(CC1)OCCO2 (stereo not given)

PK Bst,TsaE inh,SMILES
>57,i,CN(C(=O)C1CCOC1)c1nnc(C2CCOC2)s1 (stereo not given)
.,i,O=C1C2CC=C(Cl)CC2C(=O)N1c1ncn[nH]1 (stereo not given)
.,i,CN1CCN(C(=O)C2CCCCC2C(=O)O)CC1 (stereo not given)
>57,i,O=C(CSc1nn(-c2ccc(F)cc2)c(=S)s1)N1CCN(C(=O)c2ccco2)CC1
>57,i,Cc1ccc(NC(=O)CSc2n[nH]c(-c3ccncc3)n2)cc1
>57,i,COCCCNC(=O)CCn1c(=O)c2ccccc2n(CC(=O)Nc2c(C)cccc2C)c1=O
>57,i,CCN1CCCC1CNC(=O)C(NC(=O)C1CCC(C)CC1)C(C)C (stereo not given)
>57,i,Cc1ccc(C(C)C)c(OCc2nnc3n2CCCCC3)c1
>57,i,CCc1cc2ccccc2nc1SCC(=O)Nc1cc(C)on1
>57,i,CCN1C2=NCCCN2c2cc(C)c(C)cc21

PK Bst,TsaE inh,SMILES
>57,i,CN(c1nc2ccccc2n2c(-c3ccco3)nnc12)S(=O)(=O)c1ccccc1
>57,i,C=CCN(CC=C)C(=O)C1CCC(C(=O)N(CC=C)CC=C)CC1 (stereo not given)
>57,i,O=C1CCCc2nc(N3CCN(c4ccccc4)CC3)ncc21
.,i,CC(C)NC(=O)N1CC2(CCN(C(=O)c3cc(C(F)(F)F)cc(C(F)(F)F)c3)CC2)C1
